NPYLR7 ag – agonists of mosquito NPYLR7 receptor, primary screen, cell-based, Aedes aegypti, calcium fluorescence, mosquito biting behavior. Aedes aegypti neuropeptide Y-like receptor 7 (NPYLR7). HEK293T NPYLR7/Galpha15, GCaMP6s calcium fluorescence. activation, % at 10 µM. 270,000 tested, 0.15% active. AID 1259423, 2018; in the data active means activation above about 40%;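 further: 0% = vehicle and 100% = reference agonist at the receptor; some compounds past the cut are filed as inactive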
NPYLR7 ag max-min – second read-out of NPYLR7 ag, no call of its own (marks repeat the call); activation, %; measured here: Max-Min RFU normalised activation; some inactives read as strong as hits;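 span of the calcium signal over five minutes; 0% = vehicle and 100% = native peptide agonist; compound fluorescence can raise it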
An asterisk follows results filed as active.

SMILES	NPYLR7 ag	NPYLR7 ag max-min
O=C(c1c(F)c(F)c(F)c(F)c1F)N1CCN(c2nc3nccc(-c4cccc(C(F)(F)F)c4)n3n2)CC1	5	0
CCOc1ccc(NC(=O)N2CCC(C)CC(C)(C)C2)cc1 (stereo not drawn)	-7	-12
CC(=O)N1CCc2c(sc(NC(=O)c3cccc(C)c3)c2-c2nc3ccccc3s2)C1	1	0
O=C(CN1CCN(C(=O)c2ccc3c(c2)OCCCO3)CC1)Nc1cccc(F)c1	1	5
CCOC(=O)c1c(NC(=O)c2cc3nc(-c4ccccc4)cc(C(F)(F)F)n3n2)sc2c1CCC(C)C2 (stereo not drawn)	-6	-10
CCOc1ncccc1CN1CCCC(C(=O)NCCNc2ccc([N+](=O)[O-])cn2)C1 (stereo not drawn)	-14	-23
NCC1Cc2cc(-c3ccc4ncnc(NCCO)c4c3)cc(Cl)c2O1 (stereo not drawn)	0	-3
COc1cccc(F)c1C(C)NC(=O)N(C)C(C)c1ccco1 (stereo not drawn)	-3	-3
Cc1ccc(NC(=O)CSc2c(CC(C)C)cnc3c2c(=O)n(C)c(=O)n3C)c(C)c1	6	8
CC(N)=C(C#N)C(=O)COC(=O)C1CCC(C(C)(C)C)CC1 (stereo not drawn)	1	2
COc1cc(CNc2nn[nH]n2)cc(Br)c1OCc1cccnc1	-11	-15
Brc1nc(Br)n(Cc2csc(C3CCCC3)n2)n1	-2	-4
COC(=O)c1ccc(CN2CCC(CCC(=O)Nc3ccc(OC)cc3OC)CC2)cc1	14	4
c1cncc(CCCn2ccnc2-c2cccc3nonc23)c1	5	2
Cn1c2ccccc2c(=O)c2c(=O)n(Cc3ccco3)c(COc3ccccc3)nc21	7	1
O=C(CSc1nc2c([nH]c3ccccc32)c(=O)n1-c1ccc([N+](=O)[O-])cc1)Nc1ccccc1	1	11
O=C1NCC2(CCCN(Cc3cc4c(cc3Cl)OCO4)CC2)O1 (stereo not drawn)	4	3
CC1(C(=O)Nc2cnc3ccccc3c2)CCN1Cc1cccc2c1OCO2 (stereo not drawn)	5	2
O=C(C1CC1)N(CCN1CCOCC1)Cc1nccn1Cc1ccc(C(F)(F)F)cc1	12	29
Cc1ccc(C)c(COc2cccn3c(CCNC(=O)N[C@@H](C)c4ccccc4)cnc23)c1	2	0
CCCCC(CC)C(=O)N(CCOC)C(CC)c1nc2ccccc2c(=O)n1-c1ccc(OCC)cc1 (stereo not drawn)	20	16
COc1ccc(C(=O)N2CCN(Cc3cccc4nonc34)CC2)cc1	4	2
O=C(NC(c1ccccc1)c1ccco1)C1CCN(Cc2ccc(Cl)cc2)CC1 (stereo not drawn)	20	11
CC(=O)c1ccc(NC(=O)CCN2CCC(CCN(C)C)CC2)cc1	3	-8
Cc1ccsc1[C@@H]1CCN(C(=O)CCc2nc(-c3ccco3)no2)C[C@H]1O	15	11
CCOC(=O)N1CCc2c(sc(NC(=O)Cc3ccccc3)c2-c2nc3ccccc3s2)C1	1	-1
O=C(O)CC/C=C\C[C@@H]1CO[C@H](c2ccccc2Cl)O[C@@H]1c1ccccc1O	-22	-25
Cn1ccnc1C1CCCCN1C(=O)CC1(c2ccccc2)CC(=O)N(Cc2cccs2)C1=O (stereo not drawn)	23	5
COc1ccc(OCCCn2ccnc2)cc1	1	3
COc1ccc(CN(Cc2ccco2)C(=O)COc2ccccc2)cc1OS(C)(=O)=O	-1	2
CC1CCN(C2=C(c3c(-c4ccccc4)[nH]n(Cc4ccccc4)c3=O)C(=O)N(c3ccccc3F)C2=O)CC1	4	18
CCCSc1nnc(NC(=O)c2ccc(Cl)cc2Cl)s1	-9	-16
C=C(C)CN(CC)C(=O)CNc1cccc(C(=O)N2CCSCC2)c1C	-2	-9
COCCN(Cc1cccn1Cc1cccc(C(F)(F)F)c1)C(=O)CN(C(=O)c1ccccc1)C1CC1	14	11
COCC(NC1CCN(c2cccc(C)c2C)CC1)c1ccnn1C (stereo not drawn)	14	8
COc1cccc(OCc2ccccc2)c1C(=O)NC(c1ccccc1)c1ccc(Cl)cc1 (stereo not drawn)	-6	-12
Cc1cc(N2CCCC(C)C2)nc(CN2CCCC(C)C2)n1 (stereo not drawn)	-1	-2
CCCOc1cccc(-c2nc3cc(OC)c(OC)cc3c(=O)o2)c1	1	7
O=C(NC1CC1)C1CCCN(C2CCN(c3ccc(C(F)(F)F)cn3)CC2)C1 (stereo not drawn)	25	20
CCNC(=O)C1(C)CCCN1C(=O)c1cccn1C (stereo not drawn)	4	-1
COc1ccc(OC)c2c(C)cc(NC3CCS(=O)(=O)C3)nc12 (stereo not drawn)	-2	-3
COc1ccccc1CCNC(=O)CN1CN(c2ccccc2)C2(CCN(C(=O)c3cc(C(F)(F)F)cc(C(F)(F)F)c3)CC2)C1=O	8	13
COCCN(Cc1nc2ccccc2o1)C(=O)c1cc(F)cc(F)c1	-4	-12
CCCn1ncc(CN2CCOC(c3ccc(Cl)c(Cl)c3)C2)c1C (stereo not drawn)	-6	-7
CCN(Cc1cccc(C(=O)Nc2cc(C)nn2C)c1)CC1CCCO1 (stereo not drawn)	-5	-9
CC(=O)COc1cc(OCC(C)=O)c2c3c(c(=O)oc2c1)CCC3	14	5
CCC(=O)Nc1c(C)nc2sccn2c1=O	14	4
CC(C)Cc1nc(N2CCN(C(=O)COCc3ccccc3)CC2)c2c(-c3cccc(C(F)(F)F)c3)noc2n1	15	8
CSc1cccc(CN2CCN(Cc3ccccc3F)C(CCO)C2)c1 (stereo not drawn)	-4	-6
CCOC(=O)N1CCN(C(c2ccc(F)cc2)c2c(O)cc(C)n(CCOC)c2=O)CC1 (stereo not drawn)	10	3
O=C(COc1ccccc1-c1ccccc1)NC1=NCCS1	6	2
Cn1cccc1C(=O)N1CCCN(C(=O)Cc2cccc(F)c2)CC1	-2	3
COCC1CCN(c2nc3nonc3nc2NCc2cccs2)C1 (stereo not drawn)	13	6
O=C(NCc1ccc(Cl)cc1)c1nn2c(C(F)(F)F)cc(-c3ccc(Br)cc3)nc2c1Cl	-13	-22
CN(C)CCN(C)C(=O)[C@@H]1C[C@@H](NC(=O)c2cc3ccccc3s2)CN1	18	2
CCN(CC(=O)Nc1ccccc1OC)C(=O)C1CCN(c2ccc(C#N)cn2)CC1	4	2
CCOC(=O)c1cc([C@@H](C)CCC=C(C)C)sc1NC(=O)/C=C/c1ccccc1	-2	-5
Cc1c(-c2ccccc2)[n+](CC(=O)c2ccccc2)c2ccccn12	6	-6
CCOC(=O)C1CCCN(CC(=O)N2N=C(c3ccc(C)cc3C)CC2c2cccc(OC)c2)C1 (stereo not drawn)	21	16
Cc1ccc(OCCN2C(=O)CNC2=S)c(C)c1	0	-2
Other compounds.
SMILES	NPYLR7 ag	NPYLR7 ag max-min
O=C1CCCC/C1=N\Nc1ccc(N2CCCCC2)cc1	9	9
Cc1ccc(F)cc1S(=O)(=O)N(Cc1cccc(Oc2ccc(Cl)cc2)c1)Cc1ccco1	-4	-14
CN1CCNC(=O)C12CCN(C(=O)c1ccccc1-c1ncc[nH]1)CC2	9	9
Cc1ccc(-n2ncc3c(=O)n(NC(=O)CC4CCCCC4)cnc32)cc1	20	12
COC(=O)c1cc(NS(=O)(=O)c2ccc(C)cc2Cl)ccc1Cl	-1	-2
CCOc1cc(C2NC(=O)N(C)C(C)=C2C(=O)OCCc2ccccc2)ccc1O (stereo not drawn)	-1	1
CN1N=C(C(=O)NCc2cccnc2N(C)Cc2ccccc2)CCC1=O	-6	-8
Cn1ccc(COc2ccc(-c3nnco3)cc2)cc1=O	6	4
Cc1nccc(-c2cccc(NC(=O)c3cccc(SC(F)F)c3)c2)n1	-8	-17
Cc1ccc(C(=O)Nc2ccc(N3CCN(C(=O)NCc4ccccc4F)CC3)nc2)cc1	8	2
CCCCCc1ccc(C(=O)N2CCN(c3nc(C(C)C)nc4sc(C)c(C)c34)CC2)cc1	15	16
Cc1ccc(-c2nc(C(N)=O)c3[nH]c(=O)n(-c4ccc(F)cc4)c3n2)o1	-1	-3
COc1ccc(Br)cc1S(=O)(=O)N1CCC(N2CC(C)OC(C)C2)CC1 (stereo not drawn)	2	2
O=C(C1CCCO1)N1CCc2c(nc(-c3ccccn3)[nH]c2=O)C1 (stereo not drawn)	6	5
C=CCn1cc(CNCCNC(C)=O)c(C)n1	-3	-3
Cn1cnn(CN2CCCC2c2ccc3c(c2)OCO3)c1=S (stereo not drawn)	3	1
O=C(Cn1ncc(Cl)c(Cl)c1=O)NC1CCCCC1	2	1
CCOc1ccc(-c2cc(C(=O)NCCc3cccs3)c3ccccc3n2)cc1	24	32
COc1ccccc1N1CCN(C(=O)CSc2ncccn2)CC1	-5	-6
O=C(C1Cc2ccccc2C1)N(CCN1CCOCC1)Cc1ccco1	-2	-5
O=C(NCCc1cscn1)C1CCCN(C2CCN(C(=O)C3CC3)CC2)C1 (stereo not drawn)	3	1
Cn1ccc(NC(=O)c2cccc(-n3cc(Br)cn3)c2)n1	3	2
CC(c1ccc(-n2cncn2)cc1)N(C)C(=O)COc1ccc(Cl)cc1Cl (stereo not drawn)	17	6
C=CCn1c(-c2ccc(OC)cc2)c[nH]c1=S	-13	-18
Cc1c(Cl)cccc1-n1c(C(C)N(CCc2ccccc2)C(=O)c2ccc(Cl)c(Cl)c2)nc2ccccc2c1=O (stereo not drawn)	-4	-2
CC(C)NC(=O)N1CCN(c2ccccc2)C(=O)C1C (stereo not drawn)	-2	4
CC(=O)c1c(C)[nH]c(C(=O)N2CCCC2c2cccs2)c1C (stereo not drawn)	0	4
CC(C)CN1CCC(C(=O)N2CCN(C(C#N)C(C)C)CC2)C1 (stereo not drawn)	2	0
Cc1[nH]c(/C=C2\C(=O)Nc3ccc(S(=O)(=O)N(C)c4cccc(Cl)c4)cc32)c(C)c1C(=O)N1CCN(C)CC1	41	30
CN(CCn1ccc2ccccc21)C(=O)c1cn(-c2ccccc2)nn1	5	-4

Given in CSV form: entries from further up.
SMILES,NPYLR7 ag,NPYLR7 ag max-min
O=C(C1Cc2ccccc2C1)N(CCN1CCOCC1)Cc1ccco1,-2,-5
O=C(NCCc1cscn1)C1CCCN(C2CCN(C(=O)C3CC3)CC2)C1 (stereo not drawn),3,1

Remaining list, next part:
SMILES	NPYLR7 ag	NPYLR7 ag max-min
COc1ccc(NC(=O)Cn2ccnn2)cc1Cc1ccccc1	5	4
CC(=O)NC(C1C(=O)CC(C)(C)CC1=O)(C(F)(F)F)C(F)(F)F	10	9
Cc1ccc(/C=C(/C#N)S(C)(=O)=O)c(C)c1	4	2
O=C(C1CCC1)N1CCCN(Cc2ncc[nH]2)CC1	12	8
Cc1ccc2nc(-c3cc(NC(=O)c4ccc([N+](=O)[O-])c(C)c4)ccc3Cl)oc2c1	-7	2
COc1ccc(/C=C/C2=NC(=C\c3ccccc3OC)/C(=O)O2)cc1	0	-3
CCCc1cc(NCCOCCO)n2nc(C)c(-c3ccccc3)c2n1	1	7
CCCCCCCn1c(Br)nc2c1c(=O)n(C)c(=O)n2C	-2	-2
COc1ccc(NC(=O)C2CC(=O)Nc3ccccc32)cc1Cl (stereo not drawn)	2	2
O=C(c1c[nH]c(=S)n1-c1ccccc1)N1CCN(CCc2ccccc2)CC1	2	2
CC(=O)NC12CC3CC(C1)CC(C(=O)Nc1ccc4c(c1)-c1ccccc1C4)(C3)C2	-1	-3
CCCN(CCC)Cc1cc(=O)[nH]c(=O)[nH]1	2	-2
CC(C)Cn1c(CN2CCC(CN)C2)nc2ccccc21 (stereo not drawn)	8	6
CN(Cc1nncn1-c1ccc(Cl)cc1)S(C)(=O)=O	2	3
CCSCCNC(=O)c1c(C)noc1-c1cccc(C(F)(F)F)c1	2	-3
O=S1(=O)CC(O)C(Nc2ccc(Cl)cc2)C1 (stereo not drawn)	-1	1
CC1CCCCN1CCCNC(=O)c1c(O)nc2sccn2c1=O (stereo not drawn)	-4	7
Cc1cc(C)cc(NC(=O)CNC(=O)c2ccco2)c1	12	2
OC1(CN2CCCC2)CCN(C2CCC3(CCNCC3)CC2)CC1	6	1
Cc1nc(CNS(=O)(=O)c2ccccc2-c2ccccc2)cs1	-7	-6
CCn1c(C2CCN(Cc3ccc4c(C)cc(=O)oc4c3)CC2)n[nH]c1=O	8	4
COc1ccc(OC)c(C(=O)CSc2nnc(-c3ccccc3F)n2-c2ccccc2C)c1	19	19
CC1CCC2(CC1)NC(=O)N(NC(=O)CSc1nccn1C)C2=O (stereo not drawn)	1	0
COc1ccc(-c2n[nH]c(=S)n2N=Cc2c(C)nn(-c3ccccc3)c2C)cc1	-7	-5

By substructure: the entries above with an NH in an aromatic ring.
SMILES	NPYLR7 ag	NPYLR7 ag max-min
COc1cc(CNc2nn[nH]n2)cc(Br)c1OCc1cccnc1	-11	-15
O=C(CSc1nc2c([nH]c3ccccc32)c(=O)n1-c1ccc([N+](=O)[O-])cc1)Nc1ccccc1	1	11
CC1CCN(C2=C(c3c(-c4ccccc4)[nH]n(Cc4ccccc4)c3=O)C(=O)N(c3ccccc3F)C2=O)CC1	4	18
CN1CCNC(=O)C12CCN(C(=O)c1ccccc1-c1ncc[nH]1)CC2	9	9
Cc1ccc(-c2nc(C(N)=O)c3[nH]c(=O)n(-c4ccc(F)cc4)c3n2)o1	-1	-3
O=C(C1CCCO1)N1CCc2c(nc(-c3ccccn3)[nH]c2=O)C1 (stereo not drawn)	6	5
C=CCn1c(-c2ccc(OC)cc2)c[nH]c1=S	-13	-18
CC(=O)c1c(C)[nH]c(C(=O)N2CCCC2c2cccs2)c1C (stereo not drawn)	0	4
Cc1[nH]c(/C=C2\C(=O)Nc3ccc(S(=O)(=O)N(C)c4cccc(Cl)c4)cc32)c(C)c1C(=O)N1CCN(C)CC1	41	30
O=C(C1CCC1)N1CCCN(Cc2ncc[nH]2)CC1	12	8
O=C(c1c[nH]c(=S)n1-c1ccccc1)N1CCN(CCc2ccccc2)CC1	2	2
CCCN(CCC)Cc1cc(=O)[nH]c(=O)[nH]1	2	-2
CCn1c(C2CCN(Cc3ccc4c(C)cc(=O)oc4c3)CC2)n[nH]c1=O	8	4
COc1ccc(-c2n[nH]c(=S)n2N=Cc2c(C)nn(-c3ccccc3)c2C)cc1	-7	-5

Bioassay records deposited in PubChem BioAssay by Fisher Drug Discovery Resource Center.

These rows are one share of the data (hit frequency here may not be typical).
